# Assay outcomes as filed in PubChem BioAssay.
# eIF4H inh – human eIF4H binding inhibitors, primary screen, translation initiation inhibitor project, biochemical, uHTS, fluorescence polarization; Eukaryotic translation initiation factor 4H (Homo sapiens), Q15056; eIF4H fluorescence polarization binding assay; inhibition, % at 35 µM; 290,000 compounds, 0.94% hits; AID 2012, 2009;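 active = 50% or more with normal probe brightness, or confirmed in later tests; about a fifth of its hits are not listed in these tables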;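 also: calls also rest on retests at 20 µM and on dose response follow-up; 0% = protein and probe with vehicle and 100% = probe without protein; strong numbers were not always called active; many hits fall short of the cut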
# CSC inhib – cancer stem cell viability inhibitors, primary screen, luminescence. cancer stem cell-like cells viability. inhibition, % at 7.5 µM. 300,000 compounds, 1.1% hits. AID 2717, 2010;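 active = mean at 75% or more and at least half the replicates too; tested in HMLE shEcad cells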;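 also: 0% = median of negative and 100% = median of positive control wells; the first replicate is given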
# Rce1 inh – yeast Rce1p protease inhibitors, primary screen, biochemical, fluorescence, cell-free homogeneous | 290,000 compounds, 0.27% hits | AID 2563, 2010 | yeast membranes, quenched prenylated peptide cleavage fluorescence | calls only;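 active = fall in fluorescence gain of 50% or more versus controls, with final raw signal at or below 3038400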;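 also: plate controls were neutral control wells for no effect and wells lacking membranes for full effect; tested at 10 µM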
# Target sequence (Q03530 whole entry, looked up): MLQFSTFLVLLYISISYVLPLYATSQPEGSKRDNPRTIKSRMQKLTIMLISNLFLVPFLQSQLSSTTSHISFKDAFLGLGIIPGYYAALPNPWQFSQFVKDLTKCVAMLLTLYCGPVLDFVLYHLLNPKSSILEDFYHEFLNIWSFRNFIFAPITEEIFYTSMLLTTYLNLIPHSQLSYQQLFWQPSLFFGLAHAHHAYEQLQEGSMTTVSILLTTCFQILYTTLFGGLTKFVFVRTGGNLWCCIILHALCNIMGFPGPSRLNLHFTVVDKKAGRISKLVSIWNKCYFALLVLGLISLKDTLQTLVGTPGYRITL
# Yeast UUG start – modulators of yeast start codon fidelity, primary screen, whole organism, S. cerevisiae, single point, plate reader. S. cerevisiae UUG-firefly luciferase reporter, luminescence/redox ratio. activity score, % at 18.7 µM. 350,000 compounds, 0.13% hits;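 active = replicate mean at a twofold rise or more, about +100% in these data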;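 also: firefly luciferase made from a UUG start codon reports start codon fidelity; reporter light over untreated wells divided by growth signal over untreated wells; some hits fall short of that in this replicate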
# PABP polyA inh – PABP poly(A) RNA binding inhibitors, primary screen, biochemical, fluorescence polarization, uHTS | 290,000 compounds, 1% hits | inhibition, % at 35 µM | Polyadenylate-binding protein 1 (Homo sapiens), P11940;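 active = 50% or more with normal probe brightness, or confirmed in later tests; about a fifth of its hits are not listed in these tables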;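 also: calls also rest on retests at 20 µM and on dose response follow-up; controls were probe without protein and protein plus probe with vehicle; some compounds called inactive have numbers as strong as hits; many hits fall short of the cut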
# HIV Env fusion – inhibitors of HIV-1 Env-driven cell-cell fusion, primary screen, HeLa-JRFL effector, CEM21 target cells, luciferase. 360,000 compounds, 1.1% hits. AID 651610, 2012. inhibition, % at 12.3 µM;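 active = mean replicate inhibition score of at least 50 and every replicate individually at or above 50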;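 also: 0% = plate neutral controls and 100% = maraviroc near 300 nM; one replicate is shown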
# MT1-MMP act inh – blockers of MT1-MMP proenzyme processing, primary screen, HT1080 RFP-PRO-GFP cells, GFP/RFP fluorescence | Matrix metalloproteinase-14 (Homo sapiens), P50281 | GFP/RFP ratio fluorescence, overnight; percent of plate control window, DMSO zero | GFP/RFP ratio change, % at 20 µM | 360,000 compounds, 0.061% hits;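 active = GFP/RFP ratio change of at least 30% with cell ATP level not reduced by more than half and red fluorescence within 50% of control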; also: strong numbers were not always called active
#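 Assay system: HT1080 RFP-PRO-GFP cells | Dosing: 20 µM single dose, 1% DMSO | Incubation: Cells overnight before dosing, compound overnight, 37 °C, 5% CO2 | Evaluation: GFP/RFP fluorescence ratio | Control set: DMSO-only wells and HT1080 RFP-L50D-GFP cell wells as references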
# MT1-MMP act inh RFP – second read-out of MT1-MMP act inh, no call of its own (marks repeat the call); RFP signal change, %; measured here: RFP expression control read;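 0 = vehicle wells; hits needed this value within 50% of zero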
# * marks the source's active call; other numbers are inactive results; i = inactive; nt = no result given; & = joins results of further samples.
# Below each compound: eIF4H inh, CSC inhib, Rce1 inh, Yeast UUG start, PABP polyA inh, HIV Env fusion, MT1-MMP act inh, MT1-MMP act inh RFP
COc1ccc(/C=C/C(=O)O)cc1S(=O)(=O)N1CCC(Cc2ccccc2)CC1
  13.4, -3.7, i, 3.4, 13.5, 11.4, 2.8, 0.3
O=C(Cn1ncc2c([nH]c3ccccc32)c1=O)N1CCN(c2ccc(F)cc2)CC1
  -13.5, 5.3, i, -8.4, -6.5, 2.7, 3.9, 4.8
COc1ccc(CCNC(=O)c2cnc3ccccc3n2)cc1
  3.3, -4.5, i, -11.3, -5.7, -2.7, 4.4, 5.4
CCN(c1ccc(OC)cc1)S(=O)(=O)c1nnc(NC(=O)COc2ccccc2)s1
  nt, 14.7, i, -15.0, nt, -1.8, 7.0, 1.1
CCn1nc(C)c([N+](=O)[O-])c1C(=O)NNC(=O)c1ccccc1Cl
  -12.0, 6.7, i, nt, 6.7, 18.9, -1.4, 2.1
CCCONC(=O)Nc1ccccc1[N+](=O)[O-]
  -3.3, 10.5, i, nt, -9.1, -64.7, 0.7, 3.8
CCc1ccccc1NC(=O)CN1CCN(C(=O)CCC(=O)N2CCC(c3ccccc3)=N2)CC1
  nt, -10.2, nt, -13.5, nt, nt, 2.9, -10.5
Cc1cc2c(N=NC(=O)C3CC3c3ccccc3)c(O)[nH]c2cc1Br (stereo unspecified)
  5.3, 12.2, i, nt, 18.1, -16.8, -0.2, -4.8
O=C(CS(=O)(=O)c1cn(Cc2ccc(F)cc2)c2ccccc12)N1CCCCC1
  -3.6, -2.3, i, -18.4, -3.9, -10.5, 5.3, 3.8
O=C(c1ccc(S(=O)(=O)N2CCOCC2)cc1)N1CCN(c2ccccc2F)CC1
  -7.1, -17.0, i, -3.0, -1.0, -13.5, 1.5, -2.2
Cc1noc(C)c1C(=O)Nc1nnc(-c2ccccc2)s1
  8.3, -5.9, i, nt, 1.2, nt, 4.4, 3.9
CCN(CC)S(=O)(=O)c1ccc(C(=O)NCCN(C)C)cc1
  -2.0, 7.3, i, nt, 1.7, 1.6, 1.8, 5.3
O=C(Nc1ccnn1C1CCN(C(=O)c2cnsn2)CC1)c1cccc(F)c1
  0.5, -7.4, i, -11.1, -3.5, 3.2, -1.4, -0.9
CC(C)c1ccc(NC(=O)CSc2nc3ccccc3nc2N2CCCC2)cc1
  -6.4, 9.9, i, 12.3, -6.2, -0.2, -3.0, -8.2
Cn1c(Cc2csc(N)n2)nnc1SCC(=O)NC1CCCCC1
  1.0, -5.2, i, -17.2, 15.9, nt, 1.5, 6.6
COc1ccccc1CCC(=O)NNC(=O)c1ccc(Br)cc1
  -10.4, 0.6, i, -7.5, 2.0, 0.4, 3.9, 4.5
CCOC(=O)c1ccc(NC(=O)COc2ccc(CNCCO)cc2OCC)cc1
  -16.3, 3.9, i, nt, 0.7, 12.7, 0.0, -1.0
COC(=O)c1cccc(C(=O)N2CCCC(CCC(=O)N(C)CCc3ccccn3)C2)c1 (stereo unspecified)
  -0.3, -3.2, i, -1.4, 5.0, -4.5, 1.9, 0.7
COc1cccc(N(CC(=O)NCCSc2ccccc2)S(C)(=O)=O)c1
  -3.0, -10.6, i, -10.0, 3.0, 5.3, 0.7, -4.9
O=C(CCc1ccccc1)NNC(=O)c1ccc(F)cc1
  4.1, nt, i, nt, 3.3, 18.3, 6.7, 7.3

# 3 neighbouring records already listed:
# Below each compound: eIF4H inh, CSC inhib, Rce1 inh, Yeast UUG start, PABP polyA inh, HIV Env fusion, MT1-MMP act inh, MT1-MMP act inh RFP
Cc1noc(C)c1C(=O)Nc1nnc(-c2ccccc2)s1
  8.3, -5.9, i, nt, 1.2, nt, 4.4, 3.9
CCN(CC)S(=O)(=O)c1ccc(C(=O)NCCN(C)C)cc1
  -2.0, 7.3, i, nt, 1.7, 1.6, 1.8, 5.3
O=C(Nc1ccnn1C1CCN(C(=O)c2cnsn2)CC1)c1cccc(F)c1
  0.5, -7.4, i, -11.1, -3.5, 3.2, -1.4, -0.9

# Additional records.
# Below each compound: eIF4H inh, CSC inhib, Rce1 inh, Yeast UUG start, PABP polyA inh, HIV Env fusion, MT1-MMP act inh, MT1-MMP act inh RFP
CCOC(=O)c1c(CN2CCOCC2)n(C)c2cc(Br)c(O)c(CN(C)C)c12
  12.1&-12.7, -14.2&-2.6, i, 24.6&-4.1, -5.4&31.6, 2.3&-13.4, 8.7&3.7, 4.5&6.9
O=C1NN=C2CCCCCCC12 (stereo unspecified)
  nt, nt, nt, -2.8, nt, 0.3, 2.6, 2.8
O=C1C2Sc3[nH]c(=O)sc3C(c3cc([N+](=O)[O-])ccc3O)C2C(=O)N1c1ccccc1 (stereo unspecified)
  -1.2, 2.8, i, -12.3, 8.8, -4.6, 2.9, 0.7
CCCCOc1ccc(C(=O)NCC(=O)OC2CCOC2=O)cc1 (stereo unspecified)
  -9.7, -11.8, i, -15.8, 4.3, nt, -3.5, -8.1
Fc1ccccc1C1c2[nH]c3ccccc3c2CCN1Cc1ccoc1 (stereo unspecified)
  -7.2, 1.4, i, nt, 3.8, -9.8, -0.3, 3.2
O=S(=O)(Nc1ccccc1)c1ccc(NS(=O)(=O)c2cccs2)cc1
  7.9, -12.1, i, -15.1, 6.9, 1.5, 1.8, 3.0
CN(Cc1ccccc1)C(=O)c1csc([C@H]2C[C@H](O)[C@@H](CO)O2)n1
  nt, nt, nt, -11.0, nt, 14.7, 1.4, 4.4
CCOc1ccc(NS(=O)(=O)c2ccc(C(=O)N(C)Cc3cccc(OC)c3OC)cc2)cc1
  -2.0, -8.1, nt, -2.5, -8.0, nt, -2.8, -20.3
COc1ccc(CC(=O)Oc2ccc(C)cc2Br)cc1S(=O)(=O)N1CCOCC1
  nt, 0.6, i, -0.5, nt, -6.2, -3.0, 1.8
COc1cc(/C=N/NC(=O)c2ccc3ccccc3c2)ccc1Oc1ccc([N+](=O)[O-])cn1
  8.8, 12.6, nt, nt, -7.5, -1.3, -0.3, -7.7
O[C@H]1C[C@H](c2ccc(Cl)cc2)N(CC2CCCCC2)C[C@@H]1n1cc(C2CC2)nn1
  nt, nt, nt, -21.8, nt, 18.6, -7.2, -14.8
Brc1ccc2c(c1)C(c1cccnc1)=NNC(c1cccs1)=N2
  -16.0, 2.6, i, nt, -10.7, -18.9, -3.4, -1.3
Cc1cc(C)c(NC(=O)c2cc(C(=O)O)ccc2C(=O)O)c([N+](=O)[O-])c1
  -9.2, -5.4, i, nt, -2.1, 3.7, 0.6, 1.2
CC1SCCN1S(=O)(=O)c1ccc2ccccc2c1 (stereo unspecified)
  5.3, 3.4, i, -4.6, -9.0, nt, 1.2, -2.0
O=C(CCCN1C(=O)C(c2ccccc2)Oc2cccnc21)NCc1ccc(F)cc1 (stereo unspecified)
  nt, 4.0, i, -6.7, nt, -1.7, 0.4, 2.0
CN(CCOc1ccc(Cl)cc1)C(=O)CNS(=O)(=O)c1ccc(N(C)C)c([N+](=O)[O-])c1
  nt, nt, nt, -10.4, nt, 14.6, 3.1, -9.0
CN1CCN(C2Cc3ccc(F)cc3Sc3cc(F)c(Cl)cc32)CC1 (stereo unspecified)
  nt, 100.8*, i, -12.5, nt, 23.9, -8.0, -9.8
CCN(CC)C(=O)[C@H]1C[C@H](CC(=O)NCc2ccco2)C(=O)N2CCc3c([nH]c4ccc(Cl)cc34)[C@]12C
  nt, nt, nt, -17.6, nt, -36.9, -4.9, -11.1
CC1(C(=O)OCC(=O)N2c3ccccc3Sc3ccccc32)CC1(Cl)Cl (stereo unspecified)
  -3.6, 56.8, i, nt, 1.9, -15.4, 1.8, 3.7
OC(CNCc1ccc(Cl)c(Cl)c1)c1ccccc1 (stereo unspecified)
  -6.0, -5.3, i, -15.8, 3.3, 13.5, 4.3, -5.0
O=C(CC(=O)NC1CCCCC1)N/N=C/c1ccc(Cl)cc1
  5.7, -3.1, i, -26.6, 1.6, nt, 3.8, 2.7
COc1ccc(C(CC(=O)c2ccccc2)S(=O)(=O)c2ccccc2)cc1 (stereo unspecified)
  2.5, -6.1, i, nt, -11.2, -8.5, 0.5, -2.4
Cc1ccc(NS(=O)(=O)c2cccc(C(=O)NCCCN3CCCC3=O)c2)cc1
  nt, -6.9, i, nt, nt, -179.3, 3.0, -2.2
Cn1c2c(c(=O)n(C)c1=O)C1c3ccccc3OCC1C(C)(C)O2 (stereo unspecified)
  1.5, 3.7, i, -6.3, -2.7, 11.1, 1.9, 2.6
O=C(CCN1CCOCC1)c1ccc(Cl)cc1
  -11.5, 10.5, i, nt, -2.3, -13.8, -1.5, -2.7
O=C(Nn1cnnc1)c1cccc(S(=O)(=O)N2CCOCC2)c1
  2.6, -6.5, i, -15.0, 18.2, -23.0, -2.1, 1.6
Cc1ccc(-n2c(C)cc(C(=O)COC(=O)c3ccc[nH]c3=O)c2C)cc1
  2.5, 6.5, i, -2.3, -7.5, -101.4, 4.1, -1.9
CCOC(=O)c1cnc(-n2nc(C)cc2C)nc1NC1CCCC1
  11.5, -6.4, i, -43.9, 1.0, 6.2, 10.3, -28.0
CC1(c2ccc3c(c2)OCO3)NC(=O)N(CC(=O)c2ccc[nH]2)C1=O (stereo unspecified)
  nt, -14.0, i, -10.0, nt, -4.0, -2.9, -1.5
CCCc1[nH]nc2c1C(C1CCCCC1)C(C#N)=C(N)O2 (stereo unspecified)
  2.1, 21.9, i, -12.6, -2.4, -25.7, -0.4, -2.4
Cc1c(C(=O)OC(C)C)sc(NC(=O)c2cccnc2)c1C#N
  34.3, -9.6, i, -10.3, 13.2, nt, -12.6, -16.0
Cc1ccc2c(c1)c1ncnc(N3CCN(c4ccccc4)CC3)c1n2C
  3.8, nt, nt, -9.8, 6.2, nt, 7.0, 5.6
COc1ccc(CC(=O)OCN2C(=O)c3ccccc3C2=O)cc1OC
  -2.0, -5.7, i, -7.3, -4.9, -18.3, 1.4, 2.8
CC(C)C(c1nnnn1C1CCCCC1)N1CCOCC1 (stereo unspecified)
  -2.5, -3.7, i, -25.0, -2.2, -72.8, 1.3, -1.7
COCc1ccc(C(=O)N2CCCC(N3CCN(c4cccc(Cl)c4)CC3)C2)s1 (stereo unspecified)
  nt, nt, nt, -5.9, nt, -22.8, -0.5, 0.7
O=C(NC1CCCCC1)C(c1cccnc1)N(C(=O)c1csnn1)c1ccccc1 (stereo unspecified)
  6.0, -16.3, i, -13.7, 11.9, -2.2, 1.6, 1.7
Cc1ccc(NC(=O)COC(=O)c2ccc3c(c2)NC(=O)C2CCCN32)cc1 (stereo unspecified)
  2.8, 11.5, i, -15.6, 2.7, -9.2, 2.3, 6.2
Cc1cc(SCC(=O)OCC(=O)N2CCCC2=O)c(C)cc1Br
  nt, -1.2, i, 7.8, nt, -5.1, 0.4, 3.1
Cc1ccc(NC2c3ncccc3C(=O)N2Cc2cccs2)cc1 (stereo unspecified)
  -13.6, 5.1, i, nt, -6.0, 5.1, -3.4, 1.3
CCOC(=O)C1CCN(Cc2coc3ccc(Cl)cc3c2=O)CC1
  -11.0, -4.4, i, 9.1, 0.4, -66.0, 2.4, 7.0
CCc1c(C)nc(N)n2c(SCC(=O)N3CCCc4ccccc43)nnc12
  0.9, 10.9, i, -10.9, 1.5, -121.0, 4.6, 2.4
CCN(c1ccc(OC)cc1)S(=O)(=O)N1CCCC(C(=O)NCc2cccc(C)c2)C1 (stereo unspecified)
  -13.9, 2.5, i, 2.4, 0.0, -1.6, -1.0, -3.3
Cc1cnc(NC(=O)CSCc2c(C)noc2C)s1
  nt, -15.3, nt, -2.8, nt, nt, 3.1, 1.1
